E coli growth – inhibitors of Escherichia coli growth | 330,000 tested, 0.21% active | AID 1053175 | OD600, 23 h; hits give low values | OD600 absorbance (test concentration not listed);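 active = OD600 absorbance below the run mean of sample wells minus 3.6 SD, in any replicate, cut at about 0.56 in these data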;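 note: stock transfer was 300 nL into about 60 µL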
rRNA inh HTS – inhibits bacterial ribosomal RNA function over humanized ribosomes; E. coli WT GFP vs humanized-ribosome RFP mutants, fluorescence, 24 h; hits give low values; DMSO median 0, no signal -100; GFP signal change (wild-type ribosome), % (concentration not given with the values); 350,000 tested, 1.6% active; AID 720706;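 active = significant combined selectivity score with lowered wild-type GFP, culture density cut under 30%, mutant RFP and density less affected; inactive = any of these conditions unmet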; note: one replicate is shown; some compounds called inactive have numbers as strong as hits
UCH37 inh – human UCH37 deubiquitinating enzyme inhibition. inhibition, % (concentration not given with the values). 330,000 tested, 0.33% active. purified proteasome/UCH37, Ub-AMC cleavage fluorescence. Q9Y5K5;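 active = mean of two replicates above 20%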;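 note: 0% = compound-free wells with enzyme and 100% = wells lacking proteasome; stock transfer was 100 nL into about 20 µL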
Target sequence (Q9Y5K5 whole entry, looked up): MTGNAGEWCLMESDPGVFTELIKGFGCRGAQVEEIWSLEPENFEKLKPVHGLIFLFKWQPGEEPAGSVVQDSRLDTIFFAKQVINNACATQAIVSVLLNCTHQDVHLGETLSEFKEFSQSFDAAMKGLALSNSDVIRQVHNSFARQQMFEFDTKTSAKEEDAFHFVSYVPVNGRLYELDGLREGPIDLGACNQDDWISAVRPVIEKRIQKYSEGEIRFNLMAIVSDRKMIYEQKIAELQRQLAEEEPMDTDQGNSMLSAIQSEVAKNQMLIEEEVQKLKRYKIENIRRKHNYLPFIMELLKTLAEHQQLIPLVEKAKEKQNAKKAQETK
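Material: Human UCH37 enzyme supplied as purified proteasome complex | Schedule: 30 min preincubation with enzyme, 25 min cleavage at room temperature | Detection: AMC fluorescence 355/460 nm | Measure: % inhibition of Ub-AMC cleavage fluorescence | Controls: Wells without proteasome as full block, compound-free enzyme plus substrate as uninhibited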
ALR inh – inhibitors of human sulfhydryl oxidase ALR. purified ALR, DTT oxidation, H2O2 HRP-luminol luminescence. inhibition, % (concentration not given with the values). 290,000 tested, 3.8% active. AID 485317;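 active = mean and each replicate at 75% or more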;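 note: stock transfer was 7.5 nL into about 7.5 µL; 0% = neutral wells and 100% = wells with inactivated enzyme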
Target sequence (P55789 whole entry, looked up): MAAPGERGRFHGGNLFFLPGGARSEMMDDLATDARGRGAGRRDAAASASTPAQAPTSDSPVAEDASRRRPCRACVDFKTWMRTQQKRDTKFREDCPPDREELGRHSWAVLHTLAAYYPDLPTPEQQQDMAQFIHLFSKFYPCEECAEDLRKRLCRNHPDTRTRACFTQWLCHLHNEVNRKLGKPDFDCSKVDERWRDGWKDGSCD
FGF22 binding – binders of recombinant human FGF22 by thermal shift; Q9HCT0; SYPRO orange fluorescence; percent of sucrose octasulfate shift, DMSO zero; calls only at 9.99 µM; 340,000 tested, 1.5% active; AID 651658;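 active = melting point raised past a set limit in the mean and every replicate; three in four hits are not shown here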
HNF4A DNA FP – change in binding of human HNF4 alpha to DNA; P41235; activity change, % at 10 µM; HNF4a-FITC DNA binding, fluorescence polarization, 1 h; 360,000 tested, 0.3% active; in the data active = activity change above about 30%, passing the limit was not always enough;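 note: controls were the assay level and a saturating level of protein; the project sought stronger binding though the title names inhibitors; some compounds called inactive have numbers as strong as hits; positive values seem to mean higher polarization but the record does not say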
Target sequence (P41235 whole entry, looked up): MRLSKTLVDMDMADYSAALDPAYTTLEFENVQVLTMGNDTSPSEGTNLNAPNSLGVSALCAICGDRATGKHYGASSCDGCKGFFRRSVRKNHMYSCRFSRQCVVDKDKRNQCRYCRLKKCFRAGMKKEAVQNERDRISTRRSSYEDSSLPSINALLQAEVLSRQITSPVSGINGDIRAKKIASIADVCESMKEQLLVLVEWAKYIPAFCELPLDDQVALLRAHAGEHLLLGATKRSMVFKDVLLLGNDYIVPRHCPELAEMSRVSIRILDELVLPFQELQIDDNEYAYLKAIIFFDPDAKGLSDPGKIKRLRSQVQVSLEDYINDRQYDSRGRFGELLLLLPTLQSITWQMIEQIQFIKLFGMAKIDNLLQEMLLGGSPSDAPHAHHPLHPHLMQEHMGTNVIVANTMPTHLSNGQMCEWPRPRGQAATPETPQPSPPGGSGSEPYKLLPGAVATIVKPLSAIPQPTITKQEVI
Beta2AR agonist – activates human beta-2 adrenergic receptor causing internalization | P07550 | Am2.2-beta2AR cells, FAP receptor internalization, flow cytometry; reference of the scale not given here | response, % (concentration not given with the values) | 340,000 tested, 0.43% active | AID 504454;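 active = response above a set limit, near 3 SD of response in nonfluorescent compounds, cut at about 42% in these data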;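 note: stock transfer was 100 nL into about 11 µL; a reference agonist was the positive control; negative values mostly stem from fluorescent compounds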
rRNA inh HTS OD600 – recorded beside rRNA inh HTS, whose call it bears; OD600 change, %; measured here: OD600 growth;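 optical density of the mix in the first replicate; 0 = DMSO median and -100 = no signal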
rRNA inh HTS RFP – further read-out of rRNA inh HTS, marked with its call; RFP signal change, %; measured here: RFP humanized mutant strains;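 first replicate; 0 = DMSO median and -100 = no signal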
The depositor's hits bear a star; i = inactive; · = not tested or not shown; & = joins results of further samples. Only part of the results is shown, so the mix of outcomes need not match the whole.

molecule	E coli growth	rRNA inh HTS	rRNA inh HTS OD600	rRNA inh HTS RFP	UCH37 inh	ALR inh	FGF22 binding	HNF4A DNA FP	Beta2AR agonist
COc1ccc(C[C@H]2CN3C(=NC[C@@H]3Cc3ccc(O)cc3)N2C[C@H](C)NC(=O)c2ccc(C)c(Br)c2)cc1	·	·	·	·	1.9	·	·	5.3	40
COc1ccccc1/C=C/C(=O)NC(=S)N(C)C1CCCCC1	0.71	-24*	-9.6*	-1.2*	6.7	1	i	-0.2	4
Cc1cc(Nc2cc(F)ccc2C)n2ncnc2n1	0.77	8	7	-1.1	2.2	-17	i	-1.1	2
CN(C(=O)CC1C(=O)NCCN1Cc1ccccc1C(F)(F)F)C1CCOCC1 (stereo unspecified)	0.63	10	7	1.0	-43	-10	i	-0.7	6
Nc1nc(NCCOCCO)nc(N2CCCCCC2)c1[N+](=O)[O-]	0.68	1	1	1.9	9.2	-4	i	0.0	-3
CC(C)(C)NC(=O)CSc1nnc(SCC(=O)NC(C)(C)C)s1	0.69	8	14	-9.9	3.4	1	i	2.4	1
O=C(c1ccccc1)N1CCN(C(=O)c2cc3ccccc3o2)CC1	0.68	·	·	·	27*	-13	·	0.8	-5
Cc1ccc(S(=O)(=O)N[C@H](CO)C(C)C)cc1	·	14	6	-0.1	·	·	i	6.6	·
CN(C(=O)COC(=O)c1ccccc1SCC(=O)N1CCCC1)C1(C#N)CCCCC1	0.65	8	3	3.0	1.3	·	i	7.0	-5
Cn1c(N2CCOCC2)c(/C=N/OC(=O)c2ccc(F)cc2)c2ccccc21	·	·	·	·	·	20	·	-0.9	-5
CCOc1ccc(N(CC(=O)Nc2ccccc2OC)S(=O)(=O)c2ccccc2)cc1	0.69	-10	-17	-3.0	2.5	-12	i	0.4	5
CCN(CC)CCNC(=S)Nc1ccc2nc3n(c(=O)c2c1)CCCCC3	0.68	6	0	-1.0	2.1	7	i	2.5	-5

An excerpt of these results, with two lines to a compound:
Values run as follows: E coli growth	rRNA inh HTS	rRNA inh HTS OD600	rRNA inh HTS RFP	UCH37 inh	ALR inh	FGF22 binding	HNF4A DNA FP	Beta2AR agonist
Cn1c(N2CCOCC2)c(/C=N/OC(=O)c2ccc(F)cc2)c2ccccc21
→ ·	·	·	·	·	20	·	-0.9	-5
CCOc1ccc(N(CC(=O)Nc2ccccc2OC)S(=O)(=O)c2ccccc2)cc1
→ 0.69	-10	-17	-3.0	2.5	-12	i	0.4	5

(more compounds)
molecule	E coli growth	rRNA inh HTS	rRNA inh HTS OD600	rRNA inh HTS RFP	UCH37 inh	ALR inh	FGF22 binding	HNF4A DNA FP	Beta2AR agonist
O=C(COc1ccc(S(=O)(=O)N2CCCC2)cc1Cl)NCc1cccnc1	0.72	5	0	0.6	-0.8	-1	i	1.7	4
CC(C)N(Cc1ccccc1)C(=O)COC(=O)c1cc(S(=O)(=O)N(C)C)ccc1N1CCCC1	0.69	-6	5	4.7	0.9	-23	i	1.6	11
O=C(NCc1ccccc1Cl)C1CCN(S(=O)(=O)N2CCCC2)CC1	0.68	-4	-3	-1.0	2.0	-3	i	0.3	-5
CC(=O)Nc1ccc(C(=O)N2CCCC(c3cc(C(=O)NCc4ccc(F)cc4)no3)C2)cc1 (stereo unspecified)	·	2	7	-1.0	·	·	i	0.7	·
CC(=O)C1=C(C)Nc2ncnn2C1c1ccc(Cl)cc1Cl (stereo unspecified)	0.74	·	·	·	7.8	-9	·	-0.7	26
NS(=O)(=O)c1ccc(N=Cc2c(O)n(-c3nccs3)c(=O)c3ccccc23)cc1	0.68	-10	-18	-6.4	3.8	-5	i	3.0	-7
CCOC(=O)CNC(=O)CN1C(=O)CC(c2ccccc2)S(=O)(=O)c2ccccc21 (stereo unspecified)	0.67	12	7	-2.4	1.0	-33	i	2.6	-2
C/C(N)=C(/C#N)C(=O)COC(=O)C(NS(=O)(=O)c1ccc(Cl)cc1)C(C)O (stereo unspecified)	0.64&0.74	6	-9	0.3	-0.3&3.5	-16	i	1.9&1.0	-1&-1
CC1CCN(C2(O)C(=O)Nc3ccc([N+](=O)[O-])cc32)CC1 (stereo unspecified)	0.73	·	·	·	15	6	·	2.9	1
COC(C(=O)Nc1ccccc1F)c1ccccc1 (stereo unspecified)	0.71	·	·	·	4.2	-5	·	1.7	-1
CC(=O)Nc1ccc(S(=O)(=O)N(C)CC(=O)OC(C)C(=O)NC2CCCCC2)cc1 (stereo unspecified)	0.68	1	1	-2.3	3.8	2	i	1.0	-4
COc1ccccc1CNC(=O)CN(c1cccc([N+](=O)[O-])c1)S(C)(=O)=O	0.68	-1	-5	-1.8	3.4	-6	i	6.2	-1

Of the compounds above, these contain a Cl atom.
molecule	E coli growth	rRNA inh HTS	rRNA inh HTS OD600	rRNA inh HTS RFP	UCH37 inh	ALR inh	FGF22 binding	HNF4A DNA FP	Beta2AR agonist
O=C(COc1ccc(S(=O)(=O)N2CCCC2)cc1Cl)NCc1cccnc1	0.72	5	0	0.6	-0.8	-1	i	1.7	4
O=C(NCc1ccccc1Cl)C1CCN(S(=O)(=O)N2CCCC2)CC1	0.68	-4	-3	-1.0	2.0	-3	i	0.3	-5
CC(=O)C1=C(C)Nc2ncnn2C1c1ccc(Cl)cc1Cl (stereo unspecified)	0.74	·	·	·	7.8	-9	·	-0.7	26
C/C(N)=C(/C#N)C(=O)COC(=O)C(NS(=O)(=O)c1ccc(Cl)cc1)C(C)O (stereo unspecified)	0.64&0.74	6	-9	0.3	-0.3&3.5	-16	i	1.9&1.0	-1&-1

(further entries)
molecule	E coli growth	rRNA inh HTS	rRNA inh HTS OD600	rRNA inh HTS RFP	UCH37 inh	ALR inh	FGF22 binding	HNF4A DNA FP	Beta2AR agonist
C=CCc1cccc2cc(C(=O)NC3CCCCC3)c(=O)oc12	0.68	·	·	·	-6.4	2	·	-1.9	-14
CC1(C)CC(c2csc(N)n2)CCO1 (stereo unspecified)	0.75	·	·	·	3.8	0	·	1.3	12
CCc1nnc(NC(=O)c2ccc(OC)c(S(=O)(=O)N3CCCC3)c2)s1	0.66	-10	-13	-2.1	-1.5	0	i	-1.7	4
O=C(COC(=O)CC1CC2CCC1C2)NC(=O)NCc1ccco1 (stereo unspecified)	0.67	·	·	·	0.8	0	·	3.9	10
CCC1CCCCN1CCCNC(=O)c1nn(C)c2c1CS(=O)(=O)c1ccccc1-2 (stereo unspecified)	0.7	11	8	4.2	2.5	-7	i	-2.0	-5
Cc1csc(=O)n1CC(=O)Nc1nc2ccccc2s1	0.71	2	-1	2.6	0.8	13	i	6.3	-4
C[C@@H]1CN([C@H](C)CO)C(=O)c2cc(-c3ccc(F)cc3)cnc2O[C@H]1CN(C)C(=O)c1ccc(F)cc1	·	-1&1	1&-15	2.2&-1.9	·	·	i	0.3	·
Cn1cnc2c1c(=O)n(Cc1ccc(Cl)cc1Cl)c(=O)n2C	0.66	-20	-18	-4.0	1.7	-1	i	2.2	0
COC(=O)c1cnc(Nc2ccc(Cl)cc2)c([N+](=O)[O-])c1	0.74	12	-3	-0.8	4.1	-8	i	-0.1	0
Cc1cc(Br)ccc1SCC(=O)OCC(=O)NC(C)c1ccccc1 (stereo unspecified)	0.68	·	·	·	5.3	·	i	-3.6	4
Cc1ccc(N=Nc2c(=O)[nH]n3c(=O)cc(C)[nH]c23)cc1	0.75	·	·	·	12	57	·	3.5	12
Cc1ccccc1CNc1ccc(C(CC(N)=O)NC(=O)c2ccc(Br)cc2)cc1[N+](=O)[O-] (stereo unspecified)	·	14	5	-2.4	·	1	i	8.4	-9
CC(C(=O)O)n1nnc2ccccc21 (stereo unspecified)	0.66	8	0	3.6	-1.6	-1	i	-2.1	-1
O=C(Nc1ccc(Cl)cc1)c1ccc2sc([C@@H]3O[C@H](CO)[C@@H](O)[C@H]3O)nc2c1	·	-1	9	4.3	·	·	i	2.2	·
CCN(CC)C(=O)CSC(Nc1ccc(F)cc1)=C(C#N)C#N	0.67	·	·	·	9.6	99*	i	37*	2
CCOC(=O)C[C@@H]1OC[C@H](CO)N1S(=O)(=O)c1ccc(C)cc1	·	2	6	-2.4	·	·	i	-2.3	·
NC(=O)C(CCc1nc2ccccc2[nH]1)NS(=O)(=O)c1ccccc1 (stereo unspecified)	·	8	4	-2.3	·	·	i	-1.0	·
Cc1ccc(NC(=O)COC(=O)c2cccnc2)c(C)c1	0.66	12	12	2.9	3.2	1	i	2.8	-4
COc1ccc(-c2[nH]ncc2CN(C)Cc2c(C)n[nH]c2C)c(OC)c1	0.7	32	10	3.6	7.3	-7	·	-1.2	-1
Cc1onc(-c2ccccc2)c1C(=O)OCC(=O)Nc1ccccc1	0.69	-10	-17	-1.4	4.8	·	i	3.0	1
CCOc1cc(C(C#N)N2CCCCC2)ccc1OC (stereo unspecified)	0.69	·	·	·	5.0	-3	·	2.0	-1
Cc1nnc(N(C(=O)c2cnccn2)c2ccccc2)s1	0.71	·	·	·	-0.8	3	·	-2.0	1
O=C(Cc1ccccc1)NCCc1cnc[nH]1	0.62	11	20	0.2	-0.6	·	i	3.8	-4
CC(=O)c1ccc(N(C(=O)c2csnn2)C(C(=O)NC2CCCC2)c2ccccc2)cc1 (stereo unspecified)	0.61	5	-1	1.8	1.5	2	·	-2.7	-2
Cc1ccc(NC(=O)c2ccc(S(=O)(=O)N3CCCC3)cc2)nc1	0.7	2	7	-0.5	1.8	-16	i	3.6	1
COc1cc(OC)c2c(C)cc(=O)oc2c1C(CCN1CCOCC1)c1ccc2c(c1)OCO2 (stereo unspecified)	0.67	-11	3	8.1	-6.0	·	i	4.3	0
O=C(Nc1ccc(N2CCCC2)c(Cl)c1)c1ccco1	0.62	·	·	·	0.8	11	·	-0.6	-6
COc1cc(OC)cc(C(=O)N2CCN(Cc3ccccc3C(F)(F)F)CC2)c1	0.73	·	·	·	2.6	-9	·	3.3	7
COc1ccccc1N1CCCSC1=Nc1ccccc1	·	2	6	-4.2	·	·	i	3.7	·
Cc1cc(C(F)F)nn1CC(=O)Nc1cc([N+](=O)[O-])ccc1F	0.66	·	·	·	-0.4	-5	·	-0.8	0
Cc1nc(N2CCN(C(=O)CCC(=O)O)CC2)c2c(C)c(C)sc2n1	0.67	2	-9	3.0	0.9	-5	i	4.3	0
O=C(NCc1ccccc1)c1ccc(NC(=O)C2CCC2)cc1	·	8	0	-1.3	·	·	i	1.4	3
CC(Nc1nc(C(F)(F)F)nc2ccccc12)c1cccs1 (stereo unspecified)	0.67	-55	-74	-14	5.4	4	i	-6.5	7

Compound activity as filed in PubChem BioAssay.
